Sa RN4220 lethal = kills Staphylococcus aureus RN4220. inhibition, % (no concentration beside the values). S. aureus RN4220 growth, OD600, 16 h. 0.33% of 330,000 active;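 active means z-score of -3 or lower and OD600 up to 0.18 on both plates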;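 further: plate controls were untreated cells for no effect and reference antibiotic for full effect; stock transfer was 100 nL into about 80 µL; one replicate is shown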
Autofluor counter = counter-screen for toxin protease inhibitors: compound fluorescence. compound autofluorescence counterscreen, microsphere flow cytometry; active compounds read high. fluorescence intensity (test concentration not listed). 3.1% of 360,000 active. AID 624483;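 active means at least 3 SD above the mean of all compounds, about 16000 in these data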;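 further: 100 nL of 1 mM stock went into each well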
Sa ugtP lethal = compounds lethal to S. aureus RN4220 ugtP deletion mutant; growth inhibition, % (concentration not given with the values); 0.54% of 330,000 active; OD600 growth, 16 h; some inactives read as strong as hits;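 active means z-score under -3 and OD600 up to 0.15 on both plates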;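 further: plate controls were untreated wells for no effect and antibiotic for full effect; wells of about 80 µL received 100 nL stock; the first replicate is given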
Mtb hypoxia rep = reduces hypoxia-regulated biosensor signal in M. tuberculosis; fluorescence inhibition, % (concentration not given with the values); 0.1% of 300,000 active; M. tuberculosis hypoxia-regulated fluorescent reporter, fluorescence; AID 1159583;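 active means 35 to 45% if threefold the growth effect, above 45% if 1.5-fold the growth effect; inactive means the rest, general growth blockers included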;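 further: wells of about 50 µL received 100 nL stock; 0% = vehicle wells and 100% = reference inhibitor wells; whole bacteria with a GFP reporter of the hypoxia response; strong numbers were not always called active; many hits fall short of the cut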
PrP 5UTR inh = suppresses PrP 5' UTR mRNA reporter expression; 0.35% of 340,000 active; AID 488862; cell-based PrP 5' UTR mRNA reporter, plate reader; inhibition, % (no concentration beside the values);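 active means every replicate at 50% or more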;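 further: 0 = median of the neutral control wells; tested in H4 reporter cells; numbers are from one replicate; inactives centre near -14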
BJeLR viability = kills HRASV12-expressing BJeLR cells. 0.17% of 300,000 active. inhibition, % (concentration not given with the values). BJeLR (HRASV12) viability, CellTiter-Glo ATP luminescence, 48 h; reference of the scale not given here;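 active means replicate mean above 50%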;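 further: 50 nL library stock added to about 25 µL; numbers are from one replicate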
Mtb hypoxia rep growth = recorded beside Mtb hypoxia rep, whose call it bears; growth inhibition, %; measured here: M. tuberculosis growth (absorbance);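 0% = vehicle and 100% = reference antibiotic; read after six days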
An asterisk follows results filed as active; & = joins results of further samples.

Results for O=C(CC1CC=CCCC(Cc2ccc(F)cc2)C(=O)OC(c2ccccc2)CNC1=O)NC(CO)Cc1ccccc1 (centres undefined) ?
Sa RN4220 lethal: 6.6&7.7&15&8.3; Sa ugtP lethal: -1&2&4&1; Mtb hypoxia rep: -14&-6&-4&5; Mtb hypoxia rep growth: 3&3&4&2

How did COc1ccc(S(=O)(=O)Nc2ccc3oc(C)c(C(C)=O)c3c2)cc1 do in these assays?
Sa RN4220 lethal: 1.5; Autofluor counter: 9798; Sa ugtP lethal: -7; Mtb hypoxia rep: -13; PrP 5UTR inh: -20; BJeLR viability: 1; Mtb hypoxia rep growth: -3

What do the screens show for `CCC(=NNC(=O)c1ccc(Br)cc1)c1ccc(OCCN2CCOCC2)cc1`?
Sa RN4220 lethal: -2.4; Sa ugtP lethal: 12; Mtb hypoxia rep: 3; Mtb hypoxia rep growth: 0

Results for NC(Cc1cccc2ccccc12)=NOC(=O)c1ccc2c(c1)OCO2 ?
Sa RN4220 lethal: -0.7; Sa ugtP lethal: -9; Mtb hypoxia rep: 4; Mtb hypoxia rep growth: -2

How did COc1ccc(NC(=O)[C@H](NC(=O)[C@@H]2Cc3ccccc3CN2)c2ccccc2)cc1 do in these assays?
Sa RN4220 lethal: -2.5; Autofluor counter: 4255; Sa ugtP lethal: -4; Mtb hypoxia rep: -5; PrP 5UTR inh: -4; BJeLR viability: 3; Mtb hypoxia rep growth: 9

How did C/C(=N/NC(=O)Cc1cccs1)c1ccco1 do in these assays?
Autofluor counter: 2492; PrP 5UTR inh: -29; BJeLR viability: -22

How did CCN(CC)c1ccc(C(=O)OCC(=O)N2CCN(c3ccccc3)CC2)cc1 do in these assays?
Sa RN4220 lethal: 4.3; Autofluor counter: 2915; Sa ugtP lethal: -1; Mtb hypoxia rep: 10; PrP 5UTR inh: -5; BJeLR viability: -2; Mtb hypoxia rep growth: 11

Results for Cc1c(NS(=O)(=O)c2ccccc2)cc(Cl)c(O)c1C ?
Sa RN4220 lethal: 7.4; Autofluor counter: 6095; Sa ugtP lethal: -13; Mtb hypoxia rep: 0; PrP 5UTR inh: -21; BJeLR viability: 0; Mtb hypoxia rep growth: 6

How did CC(C)(C)N(Cc1ccccc1)C(=O)COC(=O)c1ccc(Br)o1 do in these assays?
Sa RN4220 lethal: -1.0; Autofluor counter: 3475; Sa ugtP lethal: 3; Mtb hypoxia rep: -4; PrP 5UTR inh: -11; Mtb hypoxia rep growth: 1

How did CCn1cc(C(=O)N2CCc3ccccc32)c(=O)c2cc(S(=O)(=O)N3CCCCCC3)ccc21 do in these assays?
Sa RN4220 lethal: 6.3; Autofluor counter: 6696; Sa ugtP lethal: 3; Mtb hypoxia rep: 3; PrP 5UTR inh: -5; BJeLR viability: -2; Mtb hypoxia rep growth: 7

What do the screens show for `CCOC(=O)c1cc(NC(=O)c2ccc(Cl)cc2)c(=O)oc1-c1ccccc1`?
Sa RN4220 lethal: 6.7; Autofluor counter: 5724; Sa ugtP lethal: -6; Mtb hypoxia rep: 7; PrP 5UTR inh: -40; BJeLR viability: -4; Mtb hypoxia rep growth: 6

Results for COc1ccc(C(=O)NCCN2CCCC2)cc1[N+](=O)[O-] ?
Sa RN4220 lethal: 5.5; Autofluor counter: 3987; Sa ugtP lethal: 6; Mtb hypoxia rep: 8; PrP 5UTR inh: -25; BJeLR viability: 4; Mtb hypoxia rep growth: 2

What do the screens show for `COCCOC(=O)C1=C(C)OC(N)=C(C#N)C1c1cc2cccc(C)c2nc1Cl` (centres undefined)?
Sa RN4220 lethal: 7.3; Autofluor counter: 4790; Sa ugtP lethal: 0; Mtb hypoxia rep: 9; PrP 5UTR inh: -19; BJeLR viability: 2; Mtb hypoxia rep growth: -2

Results for CCOc1ccc(Br)cc1S(=O)(=O)NCc1ccncc1 ?
Sa RN4220 lethal: 0.0; Autofluor counter: 5618; Sa ugtP lethal: 1; Mtb hypoxia rep: -6; PrP 5UTR inh: -30; BJeLR viability: 7; Mtb hypoxia rep growth: -7

How did COCCOC(=O)C1=C(N)Oc2c(c(=O)oc3ccccc23)[C@@]12C(=O)Nc1ccccc12 do in these assays?
Sa RN4220 lethal: 6.9; Autofluor counter: 9593; Sa ugtP lethal: -11; Mtb hypoxia rep: 13; PrP 5UTR inh: -34; BJeLR viability: -6; Mtb hypoxia rep growth: 8

Results for COc1ccc(NC(=O)c2cccc(-n3cnnn3)c2)cc1 ?
Sa RN4220 lethal: -2.4; Autofluor counter: 10235; Sa ugtP lethal: -8; Mtb hypoxia rep: 4; PrP 5UTR inh: -24; BJeLR viability: 4; Mtb hypoxia rep growth: 4

How did CCN(CC(=O)Nc1c(F)cccc1F)C(=O)CCSc1ccc(C)cc1 do in these assays?
Sa RN4220 lethal: 0.6; Autofluor counter: 5522; Sa ugtP lethal: 0; Mtb hypoxia rep: -9; PrP 5UTR inh: -18; BJeLR viability: 11; Mtb hypoxia rep growth: 0

What do the screens show for `O=C(Nc1ccc2c(c1)OCO2)N1CCN(c2ncc(C(F)(F)F)cc2Cl)CC1`?
Sa RN4220 lethal: -3.7; Autofluor counter: 3451; Sa ugtP lethal: 14; PrP 5UTR inh: -11; BJeLR viability: 0

What do the screens show for `Cc1ccc(NC(=O)CN2C(=O)S/C(=C\c3ccc(C(=O)O)cc3)C2=O)cc1`?
Sa RN4220 lethal: 2.1; Autofluor counter: 3232; Sa ugtP lethal: 4; Mtb hypoxia rep: 9; PrP 5UTR inh: -12; BJeLR viability: 3; Mtb hypoxia rep growth: -4

How did Cc1ccc(N2CC(c3nc4ccccc4n3C)CC2=O)cc1C (centres undefined) do in these assays?
Sa RN4220 lethal: -3.0; Autofluor counter: 5258; Sa ugtP lethal: 5; Mtb hypoxia rep: 6; PrP 5UTR inh: -13; BJeLR viability: -2; Mtb hypoxia rep growth: 8

How did CN1CCN(Cc2c(O)ccc3c(=O)c(Oc4ccccc4Cl)c(C(F)(F)F)oc23)CC1 do in these assays?
Sa RN4220 lethal: 3.2; Autofluor counter: 5783; Sa ugtP lethal: 10; PrP 5UTR inh: -6; BJeLR viability: 2

Results for O=C(CC(C(=O)O)c1ccc(Cl)cc1)c1ccccc1 (centres undefined) ?
Sa RN4220 lethal: 6.1; Autofluor counter: 2795; Sa ugtP lethal: 1; Mtb hypoxia rep: 0; PrP 5UTR inh: -28; BJeLR viability: -13; Mtb hypoxia rep growth: -1

Results for CC1(C)CC(NC(=O)C(c2ccccc2)c2ccccc2)CC(C)(C)N1 ?
Sa RN4220 lethal: -0.8; Autofluor counter: 4245; Sa ugtP lethal: 18; Mtb hypoxia rep: 3; PrP 5UTR inh: -24; BJeLR viability: 1; Mtb hypoxia rep growth: 1

How did NC(=S)NN=Cc1nccc2ccccc12 do in these assays?
Sa RN4220 lethal: 1.4; Autofluor counter: 3762; Sa ugtP lethal: -11; Mtb hypoxia rep: 18; PrP 5UTR inh: 79*; Mtb hypoxia rep growth: 13

What do the screens show for `CC(C)N(Cc1ccccc1)C(=O)COC(=O)CCC(=O)c1ccc(F)cc1`?
Sa RN4220 lethal: -1.1; Autofluor counter: 3445; Sa ugtP lethal: 1; Mtb hypoxia rep: 2; PrP 5UTR inh: -2; Mtb hypoxia rep growth: 1

How did COC(=O)c1c(C)oc2ccc(N(C(=O)c3ccncc3)S(=O)(=O)c3ccc4ccccc4c3)cc12 do in these assays?
Sa RN4220 lethal: 3.2; Autofluor counter: 2017; Sa ugtP lethal: 11; Mtb hypoxia rep: 10; PrP 5UTR inh: -22; BJeLR viability: 4; Mtb hypoxia rep growth: 3

How did Cc1ccc(CNC(=O)c2cn(C)c(=O)c3c2c2ccccc2n3C)o1 do in these assays?
Sa RN4220 lethal: 3.2; Autofluor counter: 7092; Sa ugtP lethal: 9; Mtb hypoxia rep: 8; PrP 5UTR inh: -23; BJeLR viability: -10; Mtb hypoxia rep growth: 9

Results for O=C(CN1C(=O)S/C(=C\c2ccc(Cl)cc2)C1=O)NNC(=O)c1ccccc1O ?
Sa RN4220 lethal: 11; Autofluor counter: 2304; Sa ugtP lethal: 12; Mtb hypoxia rep: 0; PrP 5UTR inh: -15; BJeLR viability: -21; Mtb hypoxia rep growth: 2

What do the screens show for `CN(C)CCN(C(=O)CN1C(=O)c2ccccc2C1=O)c1nc2cc3c(cc2s1)OCCO3`?
Sa RN4220 lethal: 2.2; Autofluor counter: 4751; Sa ugtP lethal: 7; Mtb hypoxia rep: 8; PrP 5UTR inh: -32; BJeLR viability: 3; Mtb hypoxia rep growth: 5

Results for CCCCCCCC(=O)N/N=C/c1ccco1 ?
Autofluor counter: 4540; PrP 5UTR inh: -17; BJeLR viability: 2

How did COc1ccc(CN(C)C(C)C(=O)Nc2ccc(S(=O)(=O)N3CCCCC3)cc2)cc1F (centres undefined) do in these assays?
Sa RN4220 lethal: 7.4; Autofluor counter: 6553; Sa ugtP lethal: 6; Mtb hypoxia rep: 1; PrP 5UTR inh: -9; Mtb hypoxia rep growth: 1

How did O=C(Nc1ccc(N2CCN(C(=O)c3cccs3)CC2)cc1)c1ccc([N+](=O)[O-])o1 do in these assays?
Autofluor counter: 6232; PrP 5UTR inh: -19; BJeLR viability: 2

How did COc1ccc(-n2cccc2/C=C/[N+](=O)[O-])cc1 do in these assays?
Sa RN4220 lethal: 24; Autofluor counter: 10059; Sa ugtP lethal: 3; Mtb hypoxia rep: 18; PrP 5UTR inh: -6; BJeLR viability: -5; Mtb hypoxia rep growth: 10

Results for COc1ccc(/C=C(/NC(=O)c2ccco2)C(=O)Nc2ccc(C(C)=O)cc2)cc1 ?
Sa RN4220 lethal: 3.6; Autofluor counter: 3309; Sa ugtP lethal: 4; Mtb hypoxia rep: 12; PrP 5UTR inh: -25; BJeLR viability: 3; Mtb hypoxia rep growth: 5

How did O=C(O)[C@@H]1CCCN1c1ncnc2sc3c(c12)CCC3 do in these assays?
Sa RN4220 lethal: 2.2; Autofluor counter: 2898; Sa ugtP lethal: 7; PrP 5UTR inh: -16; BJeLR viability: 2

Results for CCN1C(=O)[C@H]2[C@@H](c3ccc(C)cc3)N3C(=O)N(c4ccc(C(F)(F)F)cc4)C(=O)[C@@]3(Cc3ccccc3)[C@H]2C1=O ?
Autofluor counter: 3407; PrP 5UTR inh: -25; BJeLR viability: -16

How did COc1ccccc1CN(C)c1ccc(S(=O)(=O)N2CCN(C)CC2)cn1 do in these assays?
Sa RN4220 lethal: -2.1; Autofluor counter: 5644; Sa ugtP lethal: 0; Mtb hypoxia rep: 1; PrP 5UTR inh: -18; Mtb hypoxia rep growth: 2

How did CCN1CCN(C(=O)Cn2cnc3sc(C)c(S(=O)(=O)N4CCN(c5ncccn5)CC4)c3c2=O)CC1 do in these assays?
Sa RN4220 lethal: 1.1; Autofluor counter: 4891; Sa ugtP lethal: 8; Mtb hypoxia rep: -8; PrP 5UTR inh: -16; BJeLR viability: 10; Mtb hypoxia rep growth: -19

Results for CCOC(=O)CN1C(=O)C(Sc2n[nH]c(-c3cccc(C)c3)n2)CCc2ccccc21 (centres undefined) ?
Sa RN4220 lethal: -0.6; Autofluor counter: 4591; Sa ugtP lethal: 0; Mtb hypoxia rep: 8; PrP 5UTR inh: -14; BJeLR viability: -3; Mtb hypoxia rep growth: 1

How did CC1(C)CC(NC(=O)c2ccc(Cl)cc2Cl)CC(C)(C)N1 do in these assays?
Sa RN4220 lethal: 3.5; Autofluor counter: 3736; Sa ugtP lethal: 2; Mtb hypoxia rep: 12; PrP 5UTR inh: -15; BJeLR viability: 3; Mtb hypoxia rep growth: 13

A section from further up:
How did CCN1CCN(C(=O)Cn2cnc3sc(C)c(S(=O)(=O)N4CCN(c5ncccn5)CC4)c3c2=O)CC1 do in these assays?
Sa RN4220 lethal: 1.1; Autofluor counter: 4891; Sa ugtP lethal: 8; Mtb hypoxia rep: -8; PrP 5UTR inh: -16; BJeLR viability: 10; Mtb hypoxia rep growth: -19

Results for CCOC(=O)CN1C(=O)C(Sc2n[nH]c(-c3cccc(C)c3)n2)CCc2ccccc21 (centres undefined) ?
Sa RN4220 lethal: -0.6; Autofluor counter: 4591; Sa ugtP lethal: 0; Mtb hypoxia rep: 8; PrP 5UTR inh: -14; BJeLR viability: -3; Mtb hypoxia rep growth: 1

How did CC1(C)CC(NC(=O)c2ccc(Cl)cc2Cl)CC(C)(C)N1 do in these assays?
Sa RN4220 lethal: 3.5; Autofluor counter: 3736; Sa ugtP lethal: 2; Mtb hypoxia rep: 12; PrP 5UTR inh: -15; BJeLR viability: 3; Mtb hypoxia rep growth: 13

High-throughput results deposited in PubChem BioAssay by several laboratories.
